CSC inhib – blocks cancer stem cells; cancer stem cell-like cells viability, luminescence; inhibition, % at 7.5 µM; 300,000 tested, 1.1% active;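 active = mean at 75% or more and at least half the replicates too; inconclusive = mean and replicates disagree; tested in HMLE shEcad cells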;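 also: 0% = median of negative and 100% = median of positive control wells; the first replicate is given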
PABP polyA inh – blocks human PABP binding to poly(A) RNA. AID 2014. P11940. 290,000 tested, 1% active. fluorescence polarization. inhibition, % at 35 µM;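 active = 50% or more with normal probe brightness, or confirmed in later tests; inconclusive = above 50% with abnormal brightness, or retests that disagree; inactive = below 50% or failed in later tests; about a fifth of its hits are not listed in these tables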;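 also: calls also rest on retests at 20 µM and on dose response follow-up; controls were probe without protein and protein plus probe with vehicle; some compounds called inactive have numbers as strong as hits; many hits fall short of the cut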
MT1-MMP act inh – MT1-MMP (human) activation inhibition; HT1080 RFP-PRO-GFP cells, GFP/RFP ratio fluorescence, overnight; percent of plate control window, DMSO zero; GFP/RFP ratio change, % at 20 µM; 360,000 tested, 0.061% active; AID 651647;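 active = GFP/RFP ratio change of at least 30% with cell ATP level not reduced by more than half and red fluorescence within 50% of control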; also: strong numbers were not always called active
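Material – HT1080 RFP-PRO-GFP cells · Control set – DMSO wells and RFP-L50D-GFP cells · Incubation – overnight cell settling, then overnight compound exposure, 37 °C, 5% CO2 · Compound dosing – single-point 20 µM compound, 1% DMSO · Read-out – GFP/RFP fluorescence ratio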
UUG fidelity – yeast start codon fidelity modulation | S. cerevisiae UUG-firefly luciferase reporter, luminescence/redox ratio | 350,000 tested, 0.13% active | activity score, % at 18.7 µM;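 active = replicate mean at a twofold rise or more, about +100% in these data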;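 also: firefly luciferase made from a UUG start codon reports start codon fidelity; reporter light over untreated wells divided by growth signal over untreated wells; some hits fall short of that in this replicate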
eIF4H inh – inhibitors of RNA binding by human eIF4H; AID 2012; Q15056; inhibition, % at 35 µM; 290,000 tested, 0.94% active; eIF4H fluorescence polarization binding assay;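 active = 50% or more with normal probe brightness, or confirmed in later tests; inconclusive = above 50% with abnormal brightness, or retests that disagree; inactive = below 50% or failed in later tests; about a fifth of its hits are not listed in these tables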;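 also: calls also rest on retests at 20 µM and on dose response follow-up; 0% = protein and probe with vehicle and 100% = probe without protein; strong numbers were not always called active; many hits fall short of the cut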
HIV Env fusion – blocks HIV Env-driven cell-cell fusion; inhibition, % at 12.3 µM; HeLa-JRFL Env/CEM21 cell fusion, luciferase; 360,000 tested, 1.1% active;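 active = mean replicate inhibition score of at least 50 and every replicate individually at or above 50; inconclusive = only one of the two criteria met; inactive = mean below 50 and not all replicates reaching 50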;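 also: 0% = plate neutral controls and 100% = maraviroc near 300 nM; one replicate is shown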
Rce1 inhib – blocks yeast Ras-converting enzyme | Q03530 | yeast membranes, quenched prenylated peptide cleavage fluorescence | calls only | 290,000 tested, 0.27% active | AID 2563;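 active = fall in fluorescence gain of 50% or more versus controls, with final raw signal at or below 3038400; inconclusive = same 50% fall but final raw signal above 3038400; inactive = fall in fluorescence gain under 50%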;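 also: plate controls were neutral control wells for no effect and wells lacking membranes for full effect; tested at 10 µM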
Target sequence (Q03530 whole entry, looked up): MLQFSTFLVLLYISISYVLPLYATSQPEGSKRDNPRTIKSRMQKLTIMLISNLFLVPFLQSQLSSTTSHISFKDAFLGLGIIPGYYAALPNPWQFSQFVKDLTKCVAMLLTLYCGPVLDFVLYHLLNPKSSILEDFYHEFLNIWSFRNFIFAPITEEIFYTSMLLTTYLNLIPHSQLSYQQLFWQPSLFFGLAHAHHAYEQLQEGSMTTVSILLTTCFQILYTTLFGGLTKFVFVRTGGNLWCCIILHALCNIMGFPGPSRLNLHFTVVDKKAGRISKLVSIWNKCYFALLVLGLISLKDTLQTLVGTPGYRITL
eIF4H inh retest – second read-out of eIF4H inh, no call of its own (marks repeat the call); inhibition, %; compound at 20 µM; confirmation average;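 mean of two retest wells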
PABP polyA inh retest – further read-out of PABP polyA inh, marked with its call; inhibition, %; compound at 20 µM; confirmation repeats;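 mean of two retest wells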
MT1-MMP act inh RFP – also measured in MT1-MMP act inh; calls as there; RFP signal change, %; measured here: RFP expression control read;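 0 = vehicle wells; hits needed this value within 50% of zero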
Starred values were filed as active, the others as inactive; i = inactive; ? = inconclusive; · = no result given; & = joins results of further samples.

SMILES	CSC inhib	PABP polyA inh	MT1-MMP act inh	MT1-MMP act inh RFP	UUG fidelity	eIF4H inh	HIV Env fusion	Rce1 inhib	others
OCCCNc1nc(-c2ccc(Cl)cc2)nc2ccccc12	3	-7	2	-1	-14	-2	33	i
CCNC(=S)NNC(=O)c1cccc(Br)c1	0	-5	8	0	-5	-3	·	i
CC(C(=O)NCc1ccco1)n1nc(-c2ccccc2)c2cc(Cl)ccc21 (stereo not given)	6	6	0	-1	-14	1	-10	i
CN(CC(=O)NCc1ccc(F)cc1)Cc1ccc(Br)cc1	1	-2	1	0	-1	-4	8	·
O=C(CSc1nnc2c(n1)[nH]c1ccccc12)Nc1ccc(N2CCOCC2)cc1	5	10	4	-7	-8	0	-45	i
Cc1c(NC(=O)CCCCCN2C(=O)c3ccccc3C2=O)c(=O)n(-c2ccccc2)n1C	-13	-2	1	0	·	-4	2	i
COC(=O)c1ccccc1NC(=O)C1CCN(C(=O)c2cc(OC)cc(OC)c2)CC1	-14	4	-2	-2	7	-3	-1	i
CNc1cc(-c2ccc(OC)c(OC)c2)ncn1	·	·	3	1	-11	·	-87	·
COc1cc(OC)nc(Nc2nc(C(N)c3ccccc3Cl)cs2)n1 (stereo not given)	·	·	-1	2	-10	·	-79	·
CC(C)N1CCc2c(sc(N)c2C#N)C1	-12	118	-34	7	-14	?	·	i	PABP polyA inh retest=34
Cc1ccc(/C=C2\CCCC3=C2NC(=S)NC3c2ccc(C)cc2)cc1 (stereo not given)	3	-4	-4	-6	·	8	·	i
CC(C)(C)c1ccc(CNc2ccc([N+](=O)[O-])cn2)cc1	10	-2	0	-5	·	-2	·	i
COc1cccc(N2C(=O)C3ON(c4ccccc4)C(c4cccs4)C3C2=O)c1 (stereo not given)	10	-6	-1	4	28	1	-20	i
CC(=O)c1ccc(OCC(O)CN2CCN(S(=O)(=O)c3cccc(Br)c3)CC2)cc1 (stereo not given)	1	0	0	-2	-13	-6	5	i
Cc1cc(-c2onc(C)c2C(=O)N/N=C/c2ccccc2)no1	-12	1	-3	0	·	-4	15	i
O=C(NCc1cccnc1)Nc1cc(Cl)cc(Cl)c1	1	7	1	0	-17	-10	6	i
Cc1[nH]ccc(=O)c1OC1OC(CO)C(O)C(O)C1O (stereo not given)	5	-7	-1	6	-22	-2	9	i
CC(=O)Nc1ccc(NC(=O)C2CCCN(c3ncccn3)C2)cc1 (stereo not given)	-15	-6	2	6	-15	4	-46	i
Cc1ccc(S(=O)(=O)NCCN2CCOCC2)c(C)c1C	-1	-2	1	0	-9	-5	-8	i
O=c1c2c(nc3cc(-c4cccc(Cl)c4)[nH]n13)CCCC2	-5	14	-7	-5	·	-6	-82	i
CCN(CC)CCCNC(=O)c1ccc2c3n(nc2c1)-c1ccc(Cl)cc1CO3	-9	·	8	2	-7	·	-44	i
C=CCc1cccc2cc(C(=O)NCc3cccnc3)c(=O)oc12	-10	-3	6	5	·	5	-26	i
O=C(OCC(=O)N1CCN(C(=O)c2ccco2)CC1)c1ccc(Cl)c(Cl)c1	·	·	3	1	-12	·	-9	·
C[C@H]1CN([C@@H](C)CO)S(=O)(=O)c2ccc(-c3cccc(F)c3)cc2O[C@@H]1CN(C)C	·	·	2	-1	1&2&10	·	1	·
COc1ccc(NC(=O)Nc2ccc3nsnc3c2)cc1	-3	12	4	-3	-18	0	-125	i
COc1ccc(OC)c(C(=O)CSc2nc3ncccc3[nH]2)c1	·	-7	2	4	-22	1	0	i
O=C(Nc1nccs1)c1ccc(S(=O)(=O)c2ccccc2)cc1	-2	7	4	2	-12	1	·	i
Cc1[nH]c(C)c(S(=O)(=O)NCc2ccc(F)cc2)c1C(=O)N1CCCC1	-4	5	0	0	-26	-9	3	i
CCCCn1c(N)c(N(CCOC)C(=O)c2cc(-c3ccc(C)cc3)nc3ccccc23)c(=O)[nH]c1=O	11	·	-3	-2	7	·	4	i
COc1cccc(-n2nc(C(N)=O)c(O)cc2=O)c1	4	-3	1	5	·	-9	0	i
Cc1ccc(C)c(NC(=S)NC(C)C(c2cccs2)N2CCOCC2)c1 (stereo not given)	·	25	-4	-2	1	0	-9	i
O=C(NC1CS(=O)(=O)CC1NCc1ccco1)c1ccccc1 (stereo not given)	·	-2	-1	0	-4	-6	·	i
CC1=CC2(O)OCCN(CCO)C2=CC1=O (stereo not given)	3	-4	-2	7	4	82*	·	i	eIF4H inh retest=64*;PABP polyA inh retest=31
CCOCc1nnc(NC(=O)CCC2CCCCC2)s1	-2	4	-1	0	-12	-16	12	i
Cc1ccc(N=c2sc(C)c(C)n2C)cc1	-4	11	0	-1	·	-6	·	i
COc1ccccc1NC(=O)CSc1nnnn1-c1ccc(F)cc1	5	-5	-1	-1	-11	-7	-25	i
CC1(C)Cc2c(sc(NC(=O)c3ccc(S(=O)(=O)N4CCCCCC4)cc3)c2C#N)C(C)(C)N1	-7	-9	0	-2	-3	-3	63*	i
COc1ccc(-n2nnnc2SCC(=O)c2ccc(OC)c(OC)c2)cc1	-8	2	1	-3	-3	-10	·	i
CC(C)Oc1cccc(C(=O)Nc2ccccc2N2CCOCC2)c1	31	3	-5	-5	-2	3	-34	·
COc1ccc(CCNC(=O)Cc2ccc(OC)c(OC)c2)cc1OC	-6	8	0	-1	-18	-1	·	i
O=C1c2ccccc2C(=O)N1CCCCN(C(=O)c1cc([N+](=O)[O-])cc([N+](=O)[O-])c1)c1ccc(Cl)cc1	-5	5	0	-4	-15	-6	·	i
CCOc1ccc(C(C)=O)cc1N1C(=O)C2C(C1=O)C1C=CC2C12CC2 (stereo not given)	-8	-7	2	4	-18	-3	·	i
CN(CC(=O)Nc1ccc(Cl)c(Cl)c1)CC(=O)N1CCCCCC1	·	·	-1	-1	1	·	5	·
CCN(CC)c1ccc(/C=C/C(=O)C2C(=O)C=C(C)OC2=O)cc1 (stereo not given)	-9	-9	-19	65	·	?	-43	i
Cc1cc(C)cc(NS(=O)(=O)c2ccc(F)cc2)c1	-6	-4	12	2	-17	-10	-3	i
CCCCC(=O)N1CC2(C)CN(C(=O)CCCC)CC(C)(C1)C2=O	-9	-11	6	2	-4	4	·	i
CCN1C(=O)C(C(=O)c2ccccc2)SC1=S (stereo not given)	13	-3	5	8	·	20	·	i
Cc1cc2cc3c(=O)[nH]c(=O)[nH]c3nc2cc1C	12	1	·	·	·	-15	4	i
Cc1ccc(C(=O)N[C@@H](C)CN2C3=NC[C@H](C(C)C)N3C[C@H]2Cc2ccc(O)cc2)cc1Br	-1	-10	9	2	19	-8	?	i
CC(=O)Nc1nc2[nH]ccc2c(=O)[nH]1	·	·	1	-3	-9	·	0	·
COC(=O)C1=CN(Cc2ccc(OC)c(OC)c2)C=C(C(=O)OC)C1c1cccc(F)c1	2	0	1	-1	-2	11	-54	·
COc1ccc(CNS(=O)(=O)c2ccc3c(c2)CC(C)N3C(=O)C2CC2)cc1 (stereo not given)	-10	·	2	-16	-16	·	6	i
O=C(c1ccc(F)cc1)N1CCN(C2=NS(=O)(=O)c3ccccc32)CC1	-14	9	1	-1	-31	5	6	·
O=C(COC(=O)CN1C(=O)C2CC=CCC2C1=O)Nc1cc(C(F)(F)F)ccc1N1CCOCC1 (stereo not given)	1	0	1	5	-14	-22	23	i
Cc1ccc2cc(CN(CC3CCCO3)S(=O)(=O)c3cccc4nsnc34)c(=O)[nH]c2c1 (stereo not given)	-5	-1	2	3	-16	5	14	i
Cc1c(CNC(=O)C2CCC(=O)N(CCc3ccccc3)C2)cnn1C (stereo not given)	8	-2	-2	0	4	-4	-3	i
C[C@H]1CCC[C@@]2(O[C@H](CCO)C[C@H](O)[C@H]2O)O1	·	·	·	·	-16	·	3	i
COC(=O)c1cc(O)c(OCc2ccccc2)c(O)c1	-7	7	-1	1	4	1	·	i
O=[N+]([O-])c1cc([N+](=O)[O-])c2cc(-c3cccnc3)[nH]c2c1	0	·	2	1	·	·	7	i
COc1ccc(-n2ccnc2SCC(=O)Nc2ccccc2)cc1	7	-6	-2	-8	-9	-5	·	i

Carrying on:
SMILES	CSC inhib	PABP polyA inh	MT1-MMP act inh	MT1-MMP act inh RFP	UUG fidelity	eIF4H inh	HIV Env fusion	Rce1 inhib	others
COc1ccc(N=c2ssnc2Cl)cc1	17	0	2	3	-22	2	·	i
COc1ccc(C(=O)NNC(=O)CN(C)S(=O)(=O)c2ccc(Cl)cc2)c(OC)c1OC	-2	·	3	0	-1	·	·	i
Cc1ccc(C)n1-c1nccc(-c2cccs2)n1	-6	32*	-5	2	-13	91*	-128	i	eIF4H inh retest=86*;PABP polyA inh retest=66*
O=S(=O)(c1ccc(Cl)cc1)N1CCC(n2cnc3cc(C(F)(F)F)ccc32)CC1	85*	·	4	-8	·	·	64*	i
CN(C)S(=O)(=O)c1ccc(NC(=O)CCCNC(=O)c2ccc(Cl)cc2)cc1	-7	5	0	-2	2	-6	-2	i
COc1cc(/C=C2/N=C(c3ccccc3F)OC2=O)cc(Cl)c1OS(C)(=O)=O	-1	14	0	4	-14	-13	·	i
COc1ccc(-c2nc(NC(=O)Cn3cnnn3)sc2C)cc1	·	7	-1	-3	-8	-2	5	i
CCN(c1ccccc1)S(=O)(=O)c1ccc(C(=O)N2CCCC(C(F)(F)F)C2)cc1 (stereo not given)	1	·	0	-6	·	·	-14	i
CC1CCN(c2nc(-c3ccccc3)c(C#N)c(=O)[nH]2)CC1	5	-6	0	3	-28	-7	-21	i
COC(=O)CCC(=O)Nc1ccc2oc3c(c2c1)CCCC3	-18	-8	1	-5	-6	-5	12	i
CCOC(=O)c1c(NC(=O)CSc2nnc(C)c(=O)[nH]2)sc(C)c1C	-18	0	·	·	·	-2	·	i
COc1ccc(CCNC(=O)c2cc(-c3ccncc3)nc3ccc(S(=O)(=O)N4CCOCC4)cc23)cc1OC	0	3	4	2	-7	3	8	i

Some of these compounds in order of molar mass, lowest first:
SMILES	CSC inhib	PABP polyA inh	MT1-MMP act inh	MT1-MMP act inh RFP	UUG fidelity	eIF4H inh	HIV Env fusion	Rce1 inhib	others
Cc1ccc(C)n1-c1nccc(-c2cccs2)n1	-6	32*	-5	2	-13	91*	-128	i	eIF4H inh retest=86*;PABP polyA inh retest=66*
COc1ccc(N=c2ssnc2Cl)cc1	17	0	2	3	-22	2	·	i
CCN(c1ccccc1)S(=O)(=O)c1ccc(C(=O)N2CCCC(C(F)(F)F)C2)cc1 (stereo not given)	1	·	0	-6	·	·	-14	i

Further records follow.
SMILES	CSC inhib	PABP polyA inh	MT1-MMP act inh	MT1-MMP act inh RFP	UUG fidelity	eIF4H inh	HIV Env fusion	Rce1 inhib	others
O=C(COc1ccc2oc(-c3ccccc3)cc(=O)c2c1)Nc1ccccc1	0	-4	-2	-2	·	-4	8	i
CCOc1ccc(N(CC(=O)N2CCCCCC2)S(=O)(=O)c2ccc(F)cc2)cc1	-13	-3	-6	-5	18	1	28	i
O=C(Cn1cnc2c(cnn2-c2ccccc2)c1=O)N1CCOCC1	5	-2	0	5	-15	4	-17	·
CNC(=O)CSc1nnc(-c2cccs2)o1	-5	-6	1	0	·	-4	-24	i
S=c1[nH]nc(C2CCCCC2)n1/N=C/c1ccccc1Br	6	-2	3	0	-27	-11	13	i
COc1ccc(-c2cn[nH]c2-c2ccc(OCc3ccccc3)cc2O)cc1OC	43	-2	-1	-17	-19	2	1	i
COc1ccc2[nH]c3c(c2c1)CCN1C(=O)C(CC(=O)NCCc2ccccn2)C[C@H](C(=O)N2CCOCC2)[C@@]31C (stereo not given in full)	·	·	2	-1	-16	·	-18	·

Compound activity: PubChem BioAssay, several laboratories
